# KCNQ2 block: KCNQ2 potassium channel inhibitors, primary screen, cell-based, CHO-K1, FluxOR thallium flux, B-score (AID 2156); 310,000 compounds, 1.1% hits; B-score at 10 µM; 20 min; hits give low values; only compounds with negative scores are shown here; some inactives read as strong as hits;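 active = fluorescence ratio B-score at most minus 3 library SDs, with starting brightness B-score within 2 library SDs, cut at about -5.5 in these data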
# Target sequence (O88943 whole entry, looked up): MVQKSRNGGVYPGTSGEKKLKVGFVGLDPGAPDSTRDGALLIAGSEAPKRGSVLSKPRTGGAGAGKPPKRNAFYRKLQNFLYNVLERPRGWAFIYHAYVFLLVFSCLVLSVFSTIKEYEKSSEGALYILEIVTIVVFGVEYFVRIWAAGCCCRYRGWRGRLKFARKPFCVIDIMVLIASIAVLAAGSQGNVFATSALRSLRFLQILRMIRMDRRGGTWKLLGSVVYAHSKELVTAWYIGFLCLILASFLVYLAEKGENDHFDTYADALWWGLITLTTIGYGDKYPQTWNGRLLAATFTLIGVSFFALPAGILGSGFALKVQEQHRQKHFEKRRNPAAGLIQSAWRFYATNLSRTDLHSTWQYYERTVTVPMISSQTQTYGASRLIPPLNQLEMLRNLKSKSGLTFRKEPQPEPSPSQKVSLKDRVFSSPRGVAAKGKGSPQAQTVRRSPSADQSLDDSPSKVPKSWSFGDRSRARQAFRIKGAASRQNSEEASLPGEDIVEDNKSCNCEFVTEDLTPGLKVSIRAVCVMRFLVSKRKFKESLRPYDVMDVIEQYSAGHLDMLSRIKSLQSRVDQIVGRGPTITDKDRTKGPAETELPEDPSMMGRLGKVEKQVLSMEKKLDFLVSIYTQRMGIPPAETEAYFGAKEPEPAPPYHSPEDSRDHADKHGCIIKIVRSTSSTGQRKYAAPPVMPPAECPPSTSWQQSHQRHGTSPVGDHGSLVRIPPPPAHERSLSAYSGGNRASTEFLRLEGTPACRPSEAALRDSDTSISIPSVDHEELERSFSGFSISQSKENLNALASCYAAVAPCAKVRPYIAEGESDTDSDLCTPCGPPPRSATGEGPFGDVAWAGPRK
# KCNQ2 block baseline: second read-out of KCNQ2 block, no call of its own (marks repeat the call); B-score; measured here: initial fluorescence intensity artifact check;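 brightness before thallium and not channel activity; 0 = typical well and far values either way flag optical interference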
# * = called active by the depositor; i = inactive. Only part of the results is shown; rates above refer to the full screens.
SMILES,KCNQ2 block,KCNQ2 block baseline
CCOC(=O)c1c(C)noc1CP(=O)(c1ccccc1)c1ccccc1,i,0.7
CN(CC1CCOCC1)C(=O)c1ccc2nc(Cc3cccc(Cl)c3)oc2c1,i,0.69
CC(C)NS(=O)(=O)c1ccc(CCC(=O)Nc2cc(Cl)ccc2Oc2ccccc2)cc1,i,1.2
O=C(Nc1ccccc1)c1cccc(N2C(=O)C3C4C=CC(C4)C3C2=O)c1 (stereo not drawn),i,0.08
CCN(CC)CCCN(Cc1cc2cc3c(cc2[nH]c1=O)OCO3)C(=S)NCCCOC,i,0.98
CCN(CC)C(=O)N1c2ccccc2Sc2ccccc21,i,0.03
CN(Cc1ccco1)C(=O)C1CCC(=O)N(CCc2cccc(F)c2)C1 (stereo not drawn),i,0.69
CN(C(=S)NC(=O)/C=C/c1ccc(F)cc1)C1CCCCC1,i,2.1
O=C(Nc1cccc(Cl)c1)c1cccc(N2C(=O)C3CC=CCC3C2=O)c1 (stereo not drawn),-6*,-0.41*
Oc1ccc(NCc2cccc(OCc3ccc(F)cc3)c2)cc1,-5.8*,0.88*
COc1cc(Cl)c(C)cc1NC(=O)CSc1ccccc1,i,1.3
CC(C)C[C@H](NC(=O)[C@@H]1O[C@H]1C(=O)O)C(=O)NCCCCN=C(N)N,i,-0.95
COc1ccc(OC)c(NC(=O)C23CCC(C)(C(=O)C2)C3(C)C)c1 (stereo not drawn),i,0.33
COc1cccc(C2N(Cc3ccccc3)C(=O)C2(F)F)c1OC (stereo not drawn),i,-0.04
COc1ccccc1C1=NOC(C)(c2sc(-c3ccc(Cl)cc3)nc2C)C1 (stereo not drawn),i,-0.38
Cc1ccc(C(=O)NC(C(=O)Nc2ccccc2)c2ccccc2)cc1 (stereo not drawn),i,0.81
O=C(CC(O)(c1ccccc1)C(F)(F)C(F)F)c1cccs1 (stereo not drawn),i,2.7
CCOc1ccc(S(=O)(=O)n2ccnc2C)cc1,i,-0.59
Cc1c(Cc2ccccc2)c(=O)oc2cc(OCC(=O)NC(Cc3ccc(Cl)cc3)C(=O)O)ccc12 (stereo not drawn),i,0.62
CN(CC(=O)NC1CCCCCC1)S(=O)(=O)c1ccc(Br)cc1,i,0.54
COc1ccc(C(=O)Nc2nc(-c3cccs3)c(NC(C)=O)s2)cc1,i,1.2
CCOC(=O)c1cccc(N2C(=O)C3C(C(=O)NC4CC4)C4(C)C=CC3(O4)C2C(=O)NC(C)(C)C)c1 (stereo not drawn),i,0.7
CCCNC(=S)N1CCC(NC(=O)c2ccc(C)cc2)CC1,-7.3*,-0.47*
COc1ccccc1NC(=O)c1cc(-c2cc(OC)c(OC)c(OC)c2)nc2ccccc12,-8.9*,2.3*
O=c1nc(NCc2ccccc2Cl)cn[nH]1,i,1.3
C/C=C/c1ccc(OCCCCOc2c(OC)cccc2OC)c(OC)c1,i,1.9
O=C(CCc1ccccc1)NNC(=O)C12CC3CC(CC(C3)C1)C2,i,-0.57
COc1cccc(-n2c(COc3ccccc3C)nnc2SCC(=O)O)c1,i,0.42
CCNC(=O)C(C)Oc1ccc(Cl)cc1Cl (stereo not drawn),i,-0.21
C=CCN(c1ccccc1C(=O)NCC(=O)OCC)S(=O)(=O)c1ccc(C)cc1,i,0.34
CCOC(=O)c1c(C)[nH]c(C(=O)CSc2nnnn2-c2ccc(C)cc2)c1C,i,-0.5
Cc1ccc(NC(=O)N2CCCC2C(=O)NCc2ccccc2Cl)cc1 (stereo not drawn),i,0.03
Cc1ccc(NC(=O)CO/N=C/c2ccccc2C)c(C)c1,i,-0.47
CC(=O)NC(Cc1c[nH]c2ccccc12)C(=O)N1CCc2ccccc2C1 (stereo not drawn),i,-0.33
COc1ccc(-c2nc(CS(=O)CC(=O)NCc3ccc(F)cc3)c(C)o2)cc1 (stereo not drawn),i,1.7
O=C(O)c1ccc(CNS(=O)(=O)c2ccc3ccccc3c2)cc1,i,0.95
COc1ccc(C(=O)N(Cc2ccco2)Cc2cccs2)c(O)c1,i,1.7
O=C(COC(=O)c1ccccc1NS(=O)(=O)c1ccc(Cl)cc1)NCc1ccccc1,i,-0.74
O=C(NC(c1ccccc1)c1cc(Cl)c2cccnc2c1O)c1cccnc1 (stereo not drawn),i,-0.08
CCN(C(=O)CSc1nc(N)cc(=O)[nH]1)c1c(N)n(Cc2ccccc2)c(=O)[nH]c1=O,i,0.23
Cn1c(=O)[nH]c(=O)c2c1nc(N1CCNCC1)n2Cc1ccccc1,i,0.17
O=c1[nH]c(C2CCN(S(=O)(=O)c3ccccc3)CC2)nc2c1nnn2Cc1ccccc1,i,1.8
CCn1ccc(C(=O)Oc2ccc(Cl)cc2)n1,i,-0.02
O=C(Nc1ccc(Cn2cccn2)cc1)c1ccc(COc2ccc(Br)cc2)cc1,i,1.2
O=C(COc1ccccc1[N+](=O)[O-])NCCC1=CCCCC1,i,-1.1

# Reprinted from the part before: 2 entries, followed by the next part.
SMILES,KCNQ2 block,KCNQ2 block baseline
O=C(Nc1ccc(Cn2cccn2)cc1)c1ccc(COc2ccc(Br)cc2)cc1,i,1.2
O=C(COc1ccccc1[N+](=O)[O-])NCCC1=CCCCC1,i,-1.1
COc1ccc(NS(=O)(=O)c2ccc(-c3coc(C)n3)cc2)cc1OC,i,1.3
O=C(c1cccc(C(=O)N2CCN(c3ccccc3)CC2)c1)N1CCN(c2ccccc2)CC1,i,0.92
CCOc1ccc(C(=O)NCC(=O)OCC(=O)N2CCCCC2)cc1,i,0.29
COc1ccc(NC(=O)CN(C)C(=O)c2cn(-c3ccccc3)nc2-c2cccnc2)cc1,i,-0.71
C1=CC2CC1CC2CN1CCN(c2ccccc2)CC1 (stereo not drawn),i,-1.1
CCOC(=O)C1CCN(c2cc3c(cc2NC(=O)c2ccccc2Cl)n(C)c(=O)n3C)CC1,i,-2.4
CCOc1ccc(-c2nc(CSCC(=O)NCC3CCCO3)c(C)o2)cc1 (stereo not drawn),i,-0.28
Cc1ccc(NC(=O)CC2SC3=NCCCN3C2=O)c(C)c1 (stereo not drawn),i,0.66
CC1(C)Cc2nc3sc(C(=O)NCCO)c(N)c3cc2CO1,i,0.06
COc1ccc(-n2nc(C(=O)NCC(=O)NC(C)C)c3ccccc3c2=O)cc1,i,-0.22
C/C=C/Cn1c(SCc2ccc(Cl)cc2)nc2c1c(=O)[nH]c(=O)n2C,i,-0.58
Nc1cc2c(cc1C(=O)c1cccc(Br)c1)OCCO2,i,1.6
Oc1ccc(/C=N/NC(=S)Nc2cccnc2)c(O)c1O,i,-1.7
COc1ccc(CN2CCNC(=O)C2CC(=O)NCCC2=CCCCC2)c(F)c1 (stereo not drawn),i,0.85
CCOc1ccc(N2CC(C(=O)Nc3ccc(S(=O)(=O)N4CCOCC4)cc3)CC2=O)cc1 (stereo not drawn),i,1.2
CC(Cc1cccnc1)NC(=O)CCc1nnc(-c2ccccc2)o1 (stereo not drawn),i,1.9
Cc1ccc(NCN2C(=O)C3CC=CCC3C2=O)cc1 (stereo not drawn),i,0.91
CCOC(=O)C1(Cc2ccccc2)C(=O)Nc2ccccc21 (stereo not drawn),i,-0.26
Cc1cc(C)c2nc(-c3ccccn3)cc(C(=O)NCc3ccc(S(N)(=O)=O)cc3)c2c1,i,0.15
CN1C(=O)/C(=C/C=C2\SCCN2C)OC1=S,i,-0.25
N#C/C(=C\c1ccc[nH]1)Sc1nc2ccccc2s1,i,-0.47
CCOC(=O)CSC1=C(C#N)C(c2ccc(C)cc2)C2=C(CCCC2=O)N1 (stereo not drawn),i,0.54
CC(/C=C(\NC(=O)c1ccccc1)C(=O)N=Nc1c(O)[nH]c2ccc(C)cc12)=C\c1ccccc1,i,-1.6
Cc1ccc(-c2n[nH]c3c2C(c2ccccc2)N(c2ccc(C(=O)O)cc2)C3=O)cc1 (stereo not drawn),i,0.06
Cc1ccc(C)c(-c2nc3ccc(N)cc3[nH]2)c1,i,0.55
Cc1cc(C(=O)COC(=O)Cn2c(C(F)(F)F)nc3ccccc32)c(C)n1Cc1ccco1,i,0.68
CN(Cc1ccccc1)C(=O)c1ccccc1-c1ccccc1,i,-1.3
Cc1cc2cc(CNC(=O)C(C)Oc3ccccc3)ccc2n1C (stereo not drawn),i,0.79
CCNC(=O)NC(=O)C(C)Sc1ncc(C(F)(F)F)cc1Cl (stereo not drawn),i,0.44
Cc1oc(/N=C/c2cccc3ccccc23)c(C#N)c1C,i,0.19

# Single records, from the list above. Values in the order: KCNQ2 block	KCNQ2 block baseline
# Cc1cc2cc(CNC(=O)C(C)Oc3ccccc3)ccc2n1C (stereo not drawn) in the list: i	0.79
# Cc1cc(C)c2nc(-c3ccccn3)cc(C(=O)NCc3ccc(S(N)(=O)=O)cc3)c2c1 in the list: i	0.15

# (next part)
SMILES,KCNQ2 block,KCNQ2 block baseline
COc1ccc(Nc2nc3[nH]c(=O)cc(O)c3s2)cc1,i,0.34
Cc1ccc(C)c(N2CCN(C(=O)CCC(=O)N3CCOc4ccc(Cl)cc43)CC2)c1,i,-0.33
CCC(C)Oc1cccc(OCCCCN2C(=O)NC(C)(C)C2=O)c1 (stereo not drawn),i,0.39
Cc1ccc(S(=O)(=O)c2c(C)c(C)c(C)[nH]c2=O)cc1,i,-0.82
COc1cc2c(cc1OC)C(c1cccc([N+](=O)[O-])c1)N(C(=O)c1ccc(F)cc1)CC2 (stereo not drawn),i,0.58
CCC(CC)C(=O)c1c[nH]c(C(=O)NC2CCCCCC2)c1,i,1.1
Cc1onc(-c2ccccc2)c1C(=O)NCC(O)c1ccccc1 (stereo not drawn),i,0.36
COc1cc(NC(=O)c2cc(CC(C)C)on2)c(OC)cc1Cl,-7.8*,1.6*
COCCNC(=O)CCCn1c(=O)c2cc(OC)c(OC)cc2n(CC(=O)Nc2ccc(C)c(F)c2)c1=O,i,0.28
CC1CCCN(C(=O)CN2C(=O)C(C)Oc3ccccc32)C1 (stereo not drawn),i,2.6
CC(=O)Nc1ccc(S(=O)(=O)NCCSCc2c(Cl)cccc2Cl)cc1,i,0.06
COc1ccc(NC(=S)N2CCC(c3nc4ccccc4[nH]3)CC2)c(OC)c1,i,1.5
COc1cccc(N2CCN(Cc3nnnn3C3CCCCC3)CC2)c1,i,-1.4
CCOC(=O)C(=CNNc1ccccc1)C(=O)OCC,i,0.98
COc1cc(/C=N/NC(=O)c2cc(C)n(-c3ccc(F)cc3)c2C)cc(OC)c1O,i,0.09
CCOc1ccc2nc(NC(=O)Cn3cnc4c3c(=O)n(C)c(=O)n4C)sc2c1,i,2
CN1CCN(c2ccc(C(CC(N)=O)NC(=O)Cc3ccc(Br)cc3)cc2[N+](=O)[O-])CC1 (stereo not drawn),i,0.46
COCC(=O)Nc1sc2c(c1C(=O)OC)C(C(=O)OC)CC2 (stereo not drawn),i,0.05
CC(/C=C/c1ccco1)=N\NC(=O)CNc1ccc2ccccc2c1,i,0.69
CCc1cc2c(C)ccc(C)c2nc1SCC(=O)Nc1cc(C)on1,i,0.01
CCn1c(SCC(=O)c2ccc(CNC(C)=O)o2)nnc1-c1cccs1,i,1.8
Cc1cc(C)nc(SC2c3cccc4cccc(c34)C2NS(=O)(=O)c2ccccc2)n1 (stereo not drawn),-5.7*,0.01*
CCOc1cc(S(=O)(=O)N(CC)CC)ccc1Cl,i,-0.88
O=C(CNS(=O)(=O)c1ccc(Br)cc1Cl)OCC(=O)c1ccc[nH]1,i,-0.27
COCCNC(=O)Cn1nc(C(F)(F)F)cc1C,i,0.31
CCCC(=O)N1CCN(c2ccc(NC(=O)c3ccc([N+](=O)[O-])o3)cc2)CC1,i,-0.51
COc1ccc(-c2csc3ncnc(N4CCN(c5cccc(OC)c5)CC4)c23)cc1,i,2
CCSc1nc2cc(C(=O)OC)ccc2c(=O)n1CC,i,0.01
CC(NC(=O)c1ccccc1)c1nc2ccccc2n1Cc1ccc(C#N)cc1 (stereo not drawn),i,0.04
CN(C)c1ccc(/C=N/NC(=O)CN2CCCCC2)cc1Br,i,0.08
CCN1CNC(=S)N(Cc2ccccc2)C1,i,-0.08
Cc1cc(NC(=O)c2noc3c2CCCCC3)nn1Cc1ccc(Cl)cc1,i,0.15
O=C1COc2ccc(S(=O)(=O)N3CCN(c4cccc(Cl)c4)CC3)cc2N1,i,3.3
COc1ccc(OC)c(NC(=O)C(CC(=O)O)NCc2ccco2)c1 (stereo not drawn),i,-1.4
CNC(=O)C1=C(C)Nc2nc3ccccc3n2C1c1ccc(F)cc1 (stereo not drawn),i,1
COc1cc(C2C3C(=O)N(c4ccccc4)C(=O)C3ON2c2ccccc2)cc(OC)c1OC (stereo not drawn),i,-0.35
CC(=O)Nc1ccc(S(=O)(=O)NC2(C(F)(F)F)C(=O)NC(C)=C2C#N)cc1 (stereo not drawn),i,0.48
O=S(=O)(Nc1ccc(-c2nnc(SCc3ccc(Cl)cc3)o2)cc1)c1ccccc1,i,-0.83

# Of the compounds above, 12 contain an aryl thioether with sulfur outside any ring:
SMILES,KCNQ2 block,KCNQ2 block baseline
COc1cc(Cl)c(C)cc1NC(=O)CSc1ccccc1,i,1.3
COc1cccc(-n2c(COc3ccccc3C)nnc2SCC(=O)O)c1,i,0.42
CCOC(=O)c1c(C)[nH]c(C(=O)CSc2nnnn2-c2ccc(C)cc2)c1C,i,-0.5
CCN(C(=O)CSc1nc(N)cc(=O)[nH]1)c1c(N)n(Cc2ccccc2)c(=O)[nH]c1=O,i,0.23
C/C=C/Cn1c(SCc2ccc(Cl)cc2)nc2c1c(=O)[nH]c(=O)n2C,i,-0.58
N#C/C(=C\c1ccc[nH]1)Sc1nc2ccccc2s1,i,-0.47
CCNC(=O)NC(=O)C(C)Sc1ncc(C(F)(F)F)cc1Cl (stereo not drawn),i,0.44
CCc1cc2c(C)ccc(C)c2nc1SCC(=O)Nc1cc(C)on1,i,0.01
CCn1c(SCC(=O)c2ccc(CNC(C)=O)o2)nnc1-c1cccs1,i,1.8
Cc1cc(C)nc(SC2c3cccc4cccc(c34)C2NS(=O)(=O)c2ccccc2)n1 (stereo not drawn),-5.7*,0.01*
CCSc1nc2cc(C(=O)OC)ccc2c(=O)n1CC,i,0.01
O=S(=O)(Nc1ccc(-c2nnc(SCc3ccc(Cl)cc3)o2)cc1)c1ccccc1,i,-0.83

# Screening results (PubChem)
